# Compound activity as filed in PubChem.
# Mtb H37Rv = Confirmatory growth inhibition assay against Mycobacterium tuberculosis H37Rv, potency (AID 1949). most inactive calls were filed without a number and no value below 0 was filed. inhibition, % at 10 µg/mL; hits with a dose series show IC50 in µg/mL. 1.6% of 100,000 active;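 active = confirmed in a dose series; inconclusive = about 50% or more but not retested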;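 also: bacteria grown 7 days with compound before Alamar blue readout; 0% = untreated bacteria and 100% = reference antibiotic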
# * hit, by the source's call; i = inactive; ? = inconclusive.
# A first look:
SMILES | Mtb H37Rv
COc1ccc2[nH]c(O)c(NC(C)=O)c2c1 | i
CCn1cc(Br)c(C(=O)Nc2cccc(Cl)c2)n1 | 2%
COc1ccc(C2/C(=C(\O)c3ccccc3)C(=O)C(=O)N2c2ccc(C)c(Cl)c2)cc1OC (stereo not given) | i
CCc1ccc(NC(=O)C(=O)NCC(C)c2ccccc2)cc1 (stereo not given) | i
O=C(Nc1ccc(CN2CCOCC2)cc1)c1cccc(F)c1 | 0%

# This part in full, from the start:
SMILES | Mtb H37Rv
COc1ccc2[nH]c(O)c(NC(C)=O)c2c1 | i
CCn1cc(Br)c(C(=O)Nc2cccc(Cl)c2)n1 | 2%
COc1ccc(C2/C(=C(\O)c3ccccc3)C(=O)C(=O)N2c2ccc(C)c(Cl)c2)cc1OC (stereo not given) | i
CCc1ccc(NC(=O)C(=O)NCC(C)c2ccccc2)cc1 (stereo not given) | i
O=C(Nc1ccc(CN2CCOCC2)cc1)c1cccc(F)c1 | 0%
CC(=O)Nc1c(C(=O)N2CCN(c3ncccn3)CC2)cnn1-c1ccccc1Cl | 2%
CCN1CCC2(CC1)CC1CC3C=CC1(CN2C(C)=O)O3 (stereo not given) | i
CCc1cc2c(=O)c(-c3ccccc3Cl)coc2cc1OC | i
Cc1ccc(S(=O)(=O)N2CCC(C(=O)Nc3ccccc3F)CC2)cc1 | i
COc1ccccc1OCCCC(=O)Nc1nccs1 | i
O=C(Nc1ccc(Oc2ccccc2Cl)cc1)c1ccccc1[N+](=O)[O-] | 6%
COc1ccccc1N1CCN(S(=O)(=O)c2ccc(C3CCCCC3)cc2)CC1 | i
CC12CCC(C(=O)Oc3ccc(-c4ccc(C#N)cc4)cc3)(OC1=O)C2(C)C (stereo not given) | 1%
CCOC(=O)c1c(-c2cccc([N+](=O)[O-])c2)csc1NC(=O)CCc1ccccc1 | 8%
Cc1ccc(C(C)C)cc1S(=O)(=O)N1CCN(c2ccccc2Cl)CC1 | i
Cc1cc(OC(C)C(=O)Nc2ccc(S(N)(=O)=O)cc2)ccc1Cl (stereo not given) | i
COCCNC(=O)c1cccc(OC)c1OC | i
CC1CC(OCC(O)CN2CCN(c3ccc(F)cc3)CC2)CC(C)(C)C1 (stereo not given) | 14%
CC1CCN(S(=O)(=O)c2ccc(C(=O)Nc3nc4ccccc4s3)cc2)CC1 | i
O=C(CCC1CCCCC1)N1CCN(c2ccc([N+](=O)[O-])cc2)CC1 | 5%

# Some of the entries so far, field by field.
COCCNC(=O)c1cccc(OC)c1OC
  Mtb H37Rv: i

CC1CC(OCC(O)CN2CCN(c3ccc(F)cc3)CC2)CC(C)(C)C1 (stereo not given)
  Mtb H37Rv: 14%

CC1CCN(S(=O)(=O)c2ccc(C(=O)Nc3nc4ccccc4s3)cc2)CC1
  Mtb H37Rv: i

O=C(CCC1CCCCC1)N1CCN(c2ccc([N+](=O)[O-])cc2)CC1
  Mtb H37Rv: 5%

# Later entries:
SMILES | Mtb H37Rv
Cc1ccc(SCC(=O)Nc2cccc(I)c2)cc1 | 24%
Cc1c(NC(=O)Cn2nc(C(F)(F)F)c3c2CCCC3)c(=O)n(-c2ccccc2)n1C | i
Cc1cc(C)nc(SC(C)C(=O)Nc2ccc(Cl)c(Cl)c2)n1 (stereo not given) | i
N#CC1=C(N)Oc2n[nH]c(-c3ccccc3)c2C1c1ccoc1 (stereo not given) | i
CC1CCN(S(=O)(=O)c2cccc(C(=O)OCC(=O)c3ccccc3)c2)CC1 | i
COc1c(Cl)cc(C(=O)Nc2ccc(NC(=O)c3ccco3)cc2)cc1Cl | i
CCc1c(C)sc(NC(=O)c2cnn3cc(Br)cnc23)c1C#N | 1%
Cc1ccccc1CNCCNCC(C)O (stereo not given) | i
COc1ccc(C(=O)Nc2sccc2C(=O)Nc2ccccc2)cc1 | i
O=C(Nc1nccs1)C1C2CC3OC(=O)C1C3C2 (stereo not given) | i
Cc1cc(C)cc(OC(=O)C23CCC(C)(C(=O)C2=O)C3(C)C)c1 (stereo not given) | i
Cc1cccc(C(=O)Nc2nnc(SCC(=O)Nc3ccc4c(c3)oc3ccccc34)s2)c1 | i
CCN(Cc1ccccc1)C(=O)c1ccc(C)c(C)c1 | 5%
COc1ccc(OC)c(NC(=S)Nc2cc(OC)ccc2OC)c1 | i
CC(C)NS(=O)(=O)c1ccc(CCC(=O)NCc2ccc(Cl)cc2)cc1 | i
CC1CC(C)CN(C(=O)C2c3ccccc3Oc3ccccc32)C1 (stereo not given) | i
CCN(CC)C(=O)CSc1nnc(-c2ccncc2)n1N | i
Cc1cc(Br)ccc1OCC(=O)O/N=C(\N)Cc1ccc(Cl)cc1Cl | 3%
C=CCc1cc(/C=C/c2[nH]c(=O)[nH]c(=O)c2[N+](=O)[O-])cc(OCC)c1OCc1ccc(Cl)cc1 | i
COC(=O)Cc1ccc(NC(=S)N2CCN(C(=O)C3CCCO3)CC2)cc1 (stereo not given) | i
COCC(C)NS(=O)(=O)c1cc(Cl)ccc1Cl (stereo not given) | i
Cc1nnc(SCC(=O)NC2CCCC2)s1 | i
CCC(NC(=O)c1c(-c2c(F)cccc2Cl)noc1C)c1ccc(C)cc1 (stereo not given) | 12%
O=C(CCS(=O)(=O)c1ccccc1)NC12CC3CC(CC(C3)C1)C2 | i
COCc1[nH]nc2c1C(Cc1ccccc1)C(C#N)=C(N)O2 (stereo not given) | i
COc1cc(CN(C(=O)c2ccco2)c2ccc(C)cc2)ccc1O | i
Cc1ccc(OCc2cccc([N+](=O)[O-])c2)cc1C | 4%
C=CCNC(=O)c1ccccc1NC(=O)CN(c1ccc(OCC)cc1)S(=O)(=O)c1ccc(C)cc1 | i
CCN(C(=O)COc1ccc(C)c(C)c1)c1ccccc1 | 1%
O=Cc1c(Sc2ccccn2)nc2ccccn2c1=O | 2%

# 3 consecutive records already listed, for reference:
SMILES | Mtb H37Rv
COCC(C)NS(=O)(=O)c1cc(Cl)ccc1Cl (stereo not given) | i
Cc1nnc(SCC(=O)NC2CCCC2)s1 | i
CCC(NC(=O)c1c(-c2c(F)cccc2Cl)noc1C)c1ccc(C)cc1 (stereo not given) | 12%

# Remaining list, next part
SMILES | Mtb H37Rv
Cc1ccc(NC(=O)COc2ccccc2)c(NC(=O)COc2ccc(Cl)cc2)c1 | i
Cc1ccccc1NC1=NS(=O)(=O)c2ccccc21 | i
Cc1cc(Cl)c(OCCCNCc2ccccc2)c(Br)c1 | 11µg/mL*
Cn1cnc2c1c(=O)n(C/C=C/c1ccccc1)c(=O)n2C | i
Cc1noc(NS(=O)(=O)c2ccc(NC(=O)CSc3nc(-c4ccccc4)c(-c4ccccc4)o3)cc2)c1C | i
CCNC(=O)c1c(NC(=O)c2ccccc2)sc2c1CCCC2 | i
Cc1ccc(C(=O)Nc2ccc(F)cc2)o1 | i
OC1CNCc2cc3c(cc21)OCCO3 (stereo not given) | 0%
COC(=O)c1sccc1NC(=S)Nc1sc2c(c1C(=O)OC)CCC(C)C2 (stereo not given) | 7%
CC(CNC(=O)COc1ccc2ccccc2c1Br)CN(C)C (stereo not given) | i
O=C(O)c1cccc(S(=O)(=O)N2CCCCCC2)c1 | i
COc1ccccc1N1CCN(C(=O)CN(c2cccc(C(C)=O)c2)S(C)(=O)=O)CC1 | i
CCOC(=O)C1=C(C)NC(=O)NC1c1cn(-c2ccccc2)nc1-c1ccc(OC)c(OC)c1 (stereo not given) | i
Cc1nc(N/C(N)=N/C(=S)Nc2ccc(Cl)cc2)nc2ccccc12 | 1%
C(=N\N1CCN(Cc2cccc3ccccc23)CC1)/c1ccco1 | 0%
Nc1cc(=O)[nH]c(SCC(=O)Nc2ccccc2F)n1 | i
CCCCN(CC)S(=O)(=O)c1ccc(Br)cc1 | i
O=C(O)CN1C(=O)/C(=C\c2ccccc2OCc2ccccc2F)SC1=S | i
NS(=O)(=O)c1ccc(C(=O)OCc2cccc(Cl)c2Cl)cc1 | 3%
Cc1c(Cl)cccc1NC(=O)CN(C)S(=O)(=O)c1ccc2ccccc2c1 | i
O=C(Nc1ncc(Cc2cccc(C(F)(F)F)c2)s1)C1CCCCC1 | i
COc1ccc(NC(=O)C(C)Oc2ccc(Br)cc2)cc1OC (stereo not given) | i
CCOc1ccc(NC(=O)C2CCN(S(=O)(=O)c3ccc(C)cc3)CC2)cc1 | 4%
CCN(CC)CCCNC(=O)C(C)(C)C | 0%
CN1C(=O)C(CC(=O)Nc2ccc(F)cc2)N(Cc2ccccc2)C1=S (stereo not given) | i
COc1ccccc1C(=O)NCCN1CCOCC1 | i
Cc1ccc(CC(=O)NCCCN2CCOCC2)cc1 | i
CCn1ncc(Br)c1C(=O)Nc1cccc(C(C)=O)c1 | i
O=S(=O)(/N=C(\N=C(Nc1ccccc1)Nc1ccccc1)c1ccccc1)c1cccs1 | i
CCc1ccccc1Nc1nc2ccccc2nc1NS(=O)(=O)c1ccc(NC(C)=O)cc1 | i
Cc1ccc(NC(=O)c2cccc(Cl)c2)c(NC(=O)c2cccc(Cl)c2)c1 | i
Cc1cc(C)c2nc(-c3ccncc3)cc(C(=O)Nc3nccs3)c2c1 | i
CC1=C(C(=O)Nc2ccccc2)C(c2ccccc2F)C(C#N)=C(SCC(=O)NC2CCCCC2)N1 (stereo not given) | 3%
COc1cccc(OCCCOc2cccc(Br)c2)c1 | 0%
O=C(O)c1cc(-c2ccccc2)nc2ccccc12 | i
CCN(C(C)=O)c1nnc(CSc2nc3ccccc3s2)s1 | i
CC(C)(C)C(=O)Nc1ccc(N2CCN(Cc3ccccc3F)CC2)cc1 | 1%
O=C(Nc1nnc(C2CC2)s1)C1CCCO1 (stereo not given) | i
CCON1C(=O)NC(c2cc(F)ccc2C)(C(F)(F)F)C1=O (stereo not given) | i
O=C(CNS(=O)(=O)c1ccccc1)Nc1ccccc1Cl | i

# New compounds follow:
smiles	Mtb H37Rv
Clc1cc(Br)ccc1OCCCNCc1ccccc1	?
Clc1cc(Br)ccc1OCCOCCOc1cccc2cccnc12	?
O=C(Nc1ccc(Oc2ccc(NC(=O)c3ccncc3)cc2)cc1)c1ccncc1	i
C=CCn1c(Cc2ccc(OC(C)C)c(Cl)c2)n[nH]c1=S	i
CC(C)(C)CC(=O)O/N=C(\N)c1ccc(Cl)cc1	i
CCOC(=O)C1C2C=CC3(CN(CCCOC)C(=O)C13)O2 (stereo not given)	i
CC(C)C(NC(=O)c1cccs1)C(=O)Nc1nc2ccccc2s1 (stereo not given)	?
COc1ccc(CCNC(=O)c2ccc(CN3CCc4ccccc4C3)cc2)cc1	i
Cc1ccccc1CNc1nnnn1C	i
Nc1nncn1C(=O)CCCOc1ccc(Cl)cc1Cl	i
CCC(C)n1c(=S)[nH]c2ccccc21 (stereo not given)	i
COc1cc(C2NC(=O)NC(C)=C2C(C)=O)cc(I)c1O (stereo not given)	i
O=C(CSc1nc2ccccc2s1)N1CCc2ccccc21	i
CC(C)c1ccc(NC(=O)CNS(=O)(=O)c2ccccc2)cc1	i
CCc1nc(NNC(=O)c2ccccc2)c2c3c(sc2n1)COC(C)(C)C3	i
COc1ccc(S(=O)(=O)NC2CCCC2)cc1Cl	i
Cc1ccc(C)c(OCCCNC2CCCC2)c1C	3%
CCN1CCCC1CNC(=O)C(=O)Nc1c(C)cccc1C (stereo not given)	i
CCC(=O)NC(=S)Nc1ccc(-c2nc3cc(C)cc(C)c3o2)cc1	i
COc1cc(-c2ccc(NC(=O)CN3CCCCC3)c(OC)c2)ccc1NC(=O)CN1CCCCC1	i
Cc1ccc(Cl)cc1N(CC(=O)Nc1ccccc1C(=O)O)S(C)(=O)=O	i
Cc1cccc(C)c1NC(=O)COc1ccc2c3c(c(=O)oc2c1)CCCC3	i
N#Cc1ccc(C(=O)Nc2ccc(Cl)c(-c3nc4ccccc4o3)c2)c(F)c1	i
O=S(=O)(c1ccc(F)c(Cl)c1)N1CCN(c2ccccc2F)CC1	4%
Cc1ccc(CC(=O)Nc2ccc(F)c(Cl)c2)cc1	5%
COC(=O)Cc1c(C)c2ccc(OCc3cccc(OC)c3)c(C)c2oc1=O	i
COC(=O)Cn1cnc2sc(C(=O)Nc3ccccc3)c(C)c2c1=O	i
O=C(COc1ccc2c(c1)oc(=O)c1ccccc12)c1ccccc1	0%
COc1cc(-c2nc3sc4c(c3c(=O)[nH]2)CCCC4)ccc1OCc1ccccc1Cl	i
COc1cc(C(=O)Nc2cc(Cl)ccc2Oc2ccccc2)cc(OC)c1OC	1%
Cc1ccc(N2C(=O)CC(NCC(=O)O)C2=O)c(C)c1 (stereo not given)	i
O=C(Nc1cccc(-c2nc3ccccc3[nH]2)c1)c1cccc(-c2cc3ccccc3oc2=O)c1	i
Cc1ccccc1NC(=O)c1ccc(C)c(S(=O)(=O)Nc2ccccn2)c1	i
COCCNC(=O)c1nn(C)c(=O)c2ccccc12	i
Cc1nc2ccccc2c(=O)n1OCC(=O)O	i
CCCC(=O)Oc1c(I)cc(C=O)cc1OC	4%
COc1ccc(-c2c(C)[nH]n3c(=O)c(Cc4ccccc4)c(C)nc23)cc1	1.3µg/mL*
COc1nc(C)ccc1-c1noc(C)n1	i
O=C(O)C1C2C=CC(C2)C1C(=O)NCCc1cccc(Cl)c1 (stereo not given)	i
CC(NC(=O)CSc1nc2ccccc2c(=O)n1CCc1ccccc1)c1ccccc1 (stereo not given)	i

# By substructure, the entries above containing a CF3 group.
smiles	Mtb H37Rv
Cc1c(NC(=O)Cn2nc(C(F)(F)F)c3c2CCCC3)c(=O)n(-c2ccccc2)n1C	i
O=C(Nc1ncc(Cc2cccc(C(F)(F)F)c2)s1)C1CCCCC1	i
CCON1C(=O)NC(c2cc(F)ccc2C)(C(F)(F)F)C1=O (stereo not given)	i

# Carrying on:
smiles	Mtb H37Rv
COc1cc(NC(=S)N2CCN(Cc3ccc4c(c3)OCO4)CC2)cc(OC)c1	i
Cc1ccccc1-n1c(C)n[nH]c1=S	i
CN(c1cccc(NC(=O)c2ccccc2N(Cc2ccccc2)S(=O)(=O)c2ccccc2)c1)S(C)(=O)=O	i
O=C(CC1(O)C(=O)N(Cc2cccc3ccccc23)c2ccccc21)c1ccccc1[N+](=O)[O-] (stereo not given)	i
CCOc1ccc(N(CC(=O)Nc2ccccc2C(=O)NC(C)c2ccccc2)S(C)(=O)=O)cc1 (stereo not given)	i

# These rows are one share of the data, so the mix of outcomes need not match the whole.
